Beta2AR agonist: beta2AR agonists driving receptor internalization, primary screen, cell-based, FAP fluorogen, flow cytometry. Beta-2 adrenergic receptor (Homo sapiens), P07550. Am2.2-beta2AR cells; reference of the scale not given here. response, % (no concentration beside the values). hit rate 0.43% among 340,000. AID 504454, 2011;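 active = response above a set limit, near 3 SD of response in nonfluorescent compounds, cut at about 42% in these data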;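 note: stock transfer was 100 nL into about 11 µL; a reference agonist was the positive control; negative values mostly stem from fluorescent compounds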
FGF22 binding: binders of human FGF22 protein, primary screen, FGF22 synaptogenesis inhibitor project, biophysical, thermal shift, single point; Fibroblast growth factor 22 (Homo sapiens), Q9HCT0; recombinant FGF22 thermal shift, SYPRO orange fluorescence; percent of sucrose octasulfate shift, DMSO zero; calls only at 9.99 µM; hit rate 1.5% among 340,000; AID 651658, 2012;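 active = melting point raised past a set limit in the mean and every replicate; three in four hits are not shown here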
HNF4A DNA FP: change in binding of human HNF4A to DNA, primary screen, biochemical, fluorescence polarization, FITC-DNA; activity change, % at 10 µM; AID 1224865, 2016; 1 h; hit rate 0.3% among 360,000; in the data active = activity change above about 30%, passing the limit was not always enough;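 note: controls were the assay level and a saturating level of protein; the project sought stronger binding though the title names inhibitors; some compounds called inactive have numbers as strong as hits; positive values seem to mean higher polarization but the record does not say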
LANA-H2B inh: blockers of LANA interaction with H2A/H2B – biochemical, FP readout, HTS, primary screen; cell-free LANA-H2A/H2B peptide, fluorescence polarization; inhibition, % (concentration not given with the values); hit rate 0.6% among 320,000; AID 2629, 2010; in the data active = inhibition mostly above about 10%, no sharp cut-off; inactive = mostly below about 6.7%;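 note: stock transfer was 7.5 nL into about 10 µL; 0% = median of vehicle wells and 100% = median of positive control wells; one replicate is shown; the record names a cut of 25% in any replicate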
Target sequence (Q9QR71 whole entry, looked up): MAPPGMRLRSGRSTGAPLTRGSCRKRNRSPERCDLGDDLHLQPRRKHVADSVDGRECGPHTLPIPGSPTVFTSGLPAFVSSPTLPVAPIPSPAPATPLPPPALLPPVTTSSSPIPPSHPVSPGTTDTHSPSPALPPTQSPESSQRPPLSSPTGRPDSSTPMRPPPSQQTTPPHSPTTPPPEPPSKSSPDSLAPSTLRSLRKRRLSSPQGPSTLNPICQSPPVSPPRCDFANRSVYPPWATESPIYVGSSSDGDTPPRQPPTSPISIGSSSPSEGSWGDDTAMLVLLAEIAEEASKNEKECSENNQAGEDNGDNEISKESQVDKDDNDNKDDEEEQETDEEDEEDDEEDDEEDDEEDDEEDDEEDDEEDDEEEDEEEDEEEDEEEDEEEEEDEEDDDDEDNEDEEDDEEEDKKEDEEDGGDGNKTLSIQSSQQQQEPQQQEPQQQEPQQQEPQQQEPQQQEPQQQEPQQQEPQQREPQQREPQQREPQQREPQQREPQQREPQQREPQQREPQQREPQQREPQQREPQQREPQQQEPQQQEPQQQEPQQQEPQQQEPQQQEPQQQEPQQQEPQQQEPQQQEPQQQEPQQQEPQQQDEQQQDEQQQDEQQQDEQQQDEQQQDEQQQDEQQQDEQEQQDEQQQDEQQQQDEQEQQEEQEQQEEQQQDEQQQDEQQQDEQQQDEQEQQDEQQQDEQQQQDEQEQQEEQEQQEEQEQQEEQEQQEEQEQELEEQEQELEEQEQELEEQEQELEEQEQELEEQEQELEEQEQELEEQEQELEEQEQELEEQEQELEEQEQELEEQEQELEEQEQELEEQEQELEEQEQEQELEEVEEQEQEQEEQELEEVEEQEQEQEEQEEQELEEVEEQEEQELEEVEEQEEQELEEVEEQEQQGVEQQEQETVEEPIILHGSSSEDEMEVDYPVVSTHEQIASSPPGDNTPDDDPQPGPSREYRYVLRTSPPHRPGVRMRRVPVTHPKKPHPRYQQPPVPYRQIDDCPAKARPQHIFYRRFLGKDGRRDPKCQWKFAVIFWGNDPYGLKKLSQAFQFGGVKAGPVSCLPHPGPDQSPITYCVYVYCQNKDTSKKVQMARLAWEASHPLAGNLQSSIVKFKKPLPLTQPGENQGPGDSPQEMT
E coli growth: E. coli growth inhibition, primary screen, OD600. Escherichia coli growth, 23 h; hits give low values. OD600 absorbance (test concentration not listed). hit rate 0.21% among 330,000. AID 1053175, 2014;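 active = OD600 absorbance below the run mean of sample wells minus 3.6 SD, in any replicate, cut at about 0.56 in these data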;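 note: stock transfer was 300 nL into about 60 µL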
ALR H2O2 inh: inhibitors of human ALR sulfhydryl oxidase, primary screen, biochemical, H2O2 detection, HRP-luminol luminescence, single point | FAD-linked sulfhydryl oxidase ALR (Homo sapiens), P55789 | purified ALR, DTT oxidation | inhibition, % (test concentration not listed) | hit rate 3.8% among 290,000 | AID 485317, 2010;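 active = mean and each replicate at 75% or more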;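 note: stock transfer was 7.5 nL into about 7.5 µL; 0% = neutral wells and 100% = wells with inactivated enzyme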
UCH37 inh: inhibitors of human UCH37 deubiquitinase, primary screen, biochemical, Ub-AMC cleavage, fluorescence; Ubiquitin carboxyl-terminal hydrolase isozyme L5 (Homo sapiens), Q9Y5K5; purified proteasome/UCH37; inhibition, % (test concentration not listed); hit rate 0.33% among 330,000; AID 588478, 2011;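 active = mean of two replicates above 20%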;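 note: 0% = compound-free wells with enzyme and 100% = wells lacking proteasome; stock transfer was 100 nL into about 20 µL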
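System: Proteasome-associated human UCH37 deubiquitinase; Input: 0.15 nM proteasome in added enzyme buffer; Also added: Ub-AMC substrate from 1 µM stock; Incubation: 30 min compound-proteasome preincubation then 25 min substrate reaction, room temperature; Detection: fluorescence, ex 355 nm, em 460 nm; Read-out: % inhibition of Ub-AMC cleavage fluorescence; Benchmarks: no-proteasome and no-compound wells.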
Starred values were filed as active, the others as inactive; i = inactive; x = no result given; + = active, no number.

SMILES | Beta2AR agonist | FGF22 binding | HNF4A DNA FP | LANA-H2B inh | E coli growth | ALR H2O2 inh | UCH37 inh
O=C(CNc1cc(S(=O)(=O)N2CCCC2)ccc1OCC(F)(F)F)Nc1ccc(SC(F)F)cc1 | -5 | x | -0.8 | 2.4 | 0.69 | 6 | 2.0
CCOc1c(Cl)cc(/C=N/O)cc1OC | 9 | x | 0.6 | -4.4 | x | -3 | x
O=C1/C(=C/c2ccc(O)c(O)c2)SC(=S)N1Nc1ccccc1 | -34 | x | 28 | x | 0.71 | x | 7.4
CCc1ccc(/C=N/Nc2nn[nH]n2)cc1 | 1 | x | 2.3 | -2.9 | x | x | x
Clc1ccc(-c2n[nH]c3c2CCC3)c(Cl)c1 | 0 | x | -3.3 | -0.3 | 0.67 | x | 4.4
Cc1nn(C)c(C)c1N1C(=O)c2cccc3c(N)ccc(c23)C1=O | -23 | x | -91 | 133* | 0.67 | -19 | 11
CCOC(=O)c1[nH]c(C)c(CN(Cc2ccco2)C(=O)C(F)(F)F)c1C | -11 | x | 0.4 | -3.7 | 0.74 | -7 | 4.0
CC(C)Cn1c(N)c(C(=O)COC(=O)c2ccc3ccccc3n2)c(=O)n(C)c1=O | -3 | x | -2.5 | -2.2 | 0.69 | x | 1.7
Cc1ccc(NS(=O)(=O)c2ccc(Cl)c(N=Nc3c(O)[nH]c(=O)[nH]c3=O)c2)cc1Cl | 12 | i | -0.2 | 3.3 | 0.7 | -12 | 6.4
COc1ccccc1NC(=O)CN1CCN(c2ccccc2)CC1 | 0 | i | -3.7 | 3.0 | 0.68 | 47 | 2.6
CC1(C)CC(NC(=S)NCc2ccc3c(c2)OCO3)CC(C)(C)N1 | x | x | x | -2.6 | 0.71 | -10 | 4.6
COc1ccc(-c2noc(C3CCCN(C(=O)c4cccc(C)c4)C3)n2)cc1 (centres undefined) | -3 | i | -0.4 | -1.7 | 0.68 | -16 | 3.0
O=S(=O)(Nc1nc2ccccc2nc1NCC1CCCO1)c1ccc(F)cc1 (centres undefined) | 10 | i | -1.7 | 0.8 | 0.67 | 44 | -93
CCOC(=O)N1CCN(C(=O)C2CCN(Cc3cccc(OCc4ccccc4)c3)CC2)CC1 | -11 | i | -3.7 | 1.9 | 0.73 | -17 | 3.3
CC(C(=O)O)N1CCCCC1 (centres undefined) | -2 | i | -1.5 | 1.6 | 0.7 | x | 0.3
C[C@H](NC(=O)N1CCn2c1nc1ccccc12)C(=O)NCCc1ccccc1 | -9 | i | -1.5 | -4.2 | 0.71 | -5 | 2.2
Cc1ccc(OCc2nnc(NC(=O)c3ccco3)s2)cc1 | -28 | x | 5.2 | 3.1 | 0.69 | -6 | 4.3
CC[C@@H]1C=C(C(=O)O)[C@H](c2ccc3c(c2)OCO3)N1S(=O)(=O)c1ccc(C)cc1 | 2 | i | 1.0 | x | 0.69 | x | -1.1
O=S(=O)(Nc1cc2nc3ccccc3nc2n1Cc1ccccc1)c1ccc(Cl)cc1 | -26 | i | -6.3 | + | 0.73 | 3 | -69
Cc1ccnc(NC(=O)c2ccc([N+](=O)[O-])s2)c1 | -2 | i | 3.3 | -3.0 | 0.6 | -22 | 0.6
O=C(NC(=S)Nc1cccc(Cl)c1)c1cncc(Br)c1 | -2 | i | -0.8 | 0.6 | 0.67 | -10 | 4.7
Cc1ccnc(NS(=O)(=O)c2cccc3nsnc23)c1 | 0 | x | -4.7 | -7.7 | 0.77 | -6 | 2.5
Cc1cc(C)c(S(=O)(=O)NCc2ccccn2)c(C)c1 | 1 | i | 3.1 | 0.2 | 0.69 | -9 | 2.5
CCOc1cc(CNc2ccc(O)cc2)ccc1OCc1ccc(Cl)cc1Cl | 2 | x | -0.6 | 0.7 | x | -63 | x
COc1ccc(C2CC(c3cccs3)=NN2C(=O)CSc2nc3ccccc3s2)cc1 (centres undefined) | -9 | x | 5.4 | -1.1 | 0.74 | 31 | -33
Cc1cccnc1NC(=O)C(C)N1C(=O)c2ccccc2C1=O (centres undefined) | -6 | i | 1.9 | -9.1 | 0.61 | 2 | 0.3
Cc1ccc(-n2ncc3c(NNC(=O)c4cccs4)ncnc32)cc1 | 2 | i | 2.8 | 0.6 | 0.67 | x | 0.7
Cc1cc(C)cc(NC(=O)CN2CCC(NC(=O)c3cccc(F)c3)CC2)c1 | -3 | i | 1.3 | -0.4 | 0.65 | -9 | 2.8
Cc1ccc([N+](=O)[O-])cc1NC(=S)NC(=O)c1ccco1 | 0 | x | 0.8 | -4.6 | 0.7 | -5 | 1.9
Cc1ccc(S(=O)(=O)NC2=NCN(Cc3cccnc3)CN2)cc1 | 4 | x | 1.0 | 2.8 | 0.7 | 0 | 2.1
Cc1ccc(C(=O)c2ccccc2C(=O)OCC(=O)NCCc2ccc(Cl)cc2Cl)cc1 | 0 | x | 0.9 | -0.7 | 0.72 | -4 | 1.2
Cc1c(C(=O)NCCN2CCOCC2)oc2ccccc12 | -8 | x | 1.2 | -1.0 | 0.72 | x | 4.3
O=C(CCCn1cnc([N+](=O)[O-])n1)Nc1cc(Cl)ccc1O | 0 | i | -6.7 | 4.8 | x | -7 | 3.8
COc1cccc(NC(=O)CN(C)C(=O)CC(C)c2ccccc2)c1 (centres undefined) | -5 | i | 1.7 | -8.2 | 0.7 | -17 | -0.2
COc1cccc(N(C(=O)CCl)C(C(=O)NCCc2ccccc2)c2cccs2)c1 (centres undefined) | 12 | x | 4.1 | 3.5 | 0.66 | -1 | 0.4
Cc1cc(=O)n2c(nc3ccccc32)[nH]1 | 1 | x | 1.4 | -0.2 | 0.62 | -4 | -105
COc1ccccc1-c1nc(-c2cccc(C)c2)no1 | 5 | x | 0.1 | -5.2 | 0.77 | 2 | 4.1
O=[N+]([O-])c1ccccc1OCCCn1cnc2ccccc21 | 2 | i | -1.7 | x | 0.65 | x | 2.3
CC1CC(=O)N(CC(=O)NCc2ccccc2)c2ccccc2S1(=O)=O (centres undefined) | 9 | i | 2.4 | 2.5 | 0.63 | -2 | 0.6
N#CCc1cccnc1Sc1ccc(Cl)cc1 | -4 | i | -0.4 | 1.7 | 0.64 | -2 | 6.8

Another view of two compounds above.
Second line of a record: Beta2AR agonist	FGF22 binding	HNF4A DNA FP	LANA-H2B inh	E coli growth	ALR H2O2 inh	UCH37 inh
Cc1ccc(C(=O)c2ccccc2C(=O)OCC(=O)NCCc2ccc(Cl)cc2Cl)cc1
    0	x	0.9	-0.7	0.72	-4	1.2
Cc1c(C(=O)NCCN2CCOCC2)oc2ccccc12
    -8	x	1.2	-1.0	0.72	x	4.3

Next part.
SMILES | Beta2AR agonist | FGF22 binding | HNF4A DNA FP | LANA-H2B inh | E coli growth | ALR H2O2 inh | UCH37 inh
CCS(=O)(=O)c1nc(S(=O)(=O)c2ccc(C)cc2)c(N2CCC3(CC2)OCCO3)s1 | 5 | i | 5.1 | -1.2 | 0.65 | 1 | 5.4
OC(COCCOc1ccc(Br)cc1)CN1CCN(Cc2ccccc2)CC1 (centres undefined) | -4 | x | 7.7 | -3.7 | 0.71 | x | 6.0
COc1ccccc1NC(=O)CCN1CCN(C)CC1 | -5 | i | 0.1 | -6.7 | 0.65 | -13 | 1.8
O=C(Nc1cccc(C2OCCCO2)c1)c1cccs1 | -16 | x | -0.1 | 1.0 | 0.69 | -10 | 0.9
CCN(Cc1ccccc1)CC(O)COc1ccccc1 (centres undefined) | 13 | x | 1.3 | -3.3 | 0.68 | 7 | 3.4
O=C(c1ccncc1)N1CCN(C2CCCCC2)CC1 | 3 | i | 0.5 | -4.0 | 0.69 | -1 | 3.3
COc1ccccc1NC(=O)Cc1nc(CCl)cs1 | 0 | x | 0.7 | 2.4 | 0.64 | x | 1.5
CC(C)C[C@H]1CNC(=S)N1CC1CCCN1C[C@H](Cc1ccccc1)N1C[C@H](Cc2ccc(O)cc2)N(CC2CCCCC2)C1=S (some centres undefined) | 6 | i | 2.4 | x | x | x | x
Cc1nnc(C)n1/N=C/c1cccnc1 | 8 | x | 0.4 | 0.0 | x | -2 | x
CN(CC(=O)Nc1ccc(N2CCOCC2)cc1)C(=O)CCc1ccccc1Cl | -5 | i | 1.4 | -0.1 | 0.71 | 42 | 3.6
CCOc1ccccc1NC(=S)NC(=O)CCCOc1ccc(Cl)cc1Cl | -6 | x | -2.6 | 4.8 | 0.66 | 2 | 2.7
Nc1nc(N2CCCCC2)nc2ccccc12 | -6 | x | -0.3 | 6.1 | 0.76 | -8 | -25
Cc1cccc(NC(=O)C2CCN(C(=O)NC3CCCCC3)CC2)c1 | 7 | i | -0.1 | -11 | 0.64 | -2 | -0.9
CCCC(=O)Nc1ccc(S(=O)(=O)N2CCCC2)cc1 | -6 | i | -0.2 | 1.3 | 0.64 | 29 | 0.4
CC(=O)Nc1sc2c(c1C#N)CCCC2 | 5 | x | -1.7 | -0.6 | 0.66 | x | 0.3
CCCOc1ccc(C(=O)N2CC3(CC(c4cccc(NC(=O)[C@@H]5CCC(=O)N5)c4)=NO3)C[C@H]2C(=O)NC2(C(N)=O)CC2)cc1 (some centres undefined) | -9 | i | 0.9 | -2.8 | 0.79 | -7 | 2.8
COc1ccccc1N(CC(=O)NCCc1ccccc1)C(=O)CCC(=O)Nc1cc(C)ccn1 | 10 | i | 2.6 | 2.4 | 0.71 | x | 0.7
CCOc1cc(N2CCOCC2)c(OCC)cc1NC(=O)CSc1n[nH]c(N)n1 | 1 | i | -0.3 | 2.3 | 0.63 | 14 | 0.7
Cn1nc(C(C)(C)C)c([N+](=O)[O-])c1C(=O)Nc1ccccc1 | 2 | x | 1.1 | -1.4 | x | -3 | 2.2
COc1ccc(-c2oc3ccc(-c4ccc(OC)nc4)cc3c2C#CC2(O)CCCCC2)cc1 | 5 | i | -4.1 | -4.2 | 0.72 | -8 | -71
[O-][N+]12CCN(CC1)c1ccccc12 | 8 | x | -0.1 | -7.7 | 0.63 | -5 | -1.6
CC1CCc2c(sc3ncn4c(SCC(=O)NCc5ccco5)nnc4c23)C1 (centres undefined) | -4 | i | 1.2 | -7.0 | 0.7 | 6 | 2.3
O=C(CSc1nc2cc(Cl)ccc2s1)NC(=O)NCc1ccco1 | 5 | x | -6.5 | 4.1 | 0.7 | -7 | 0.4
Cn1c(CN2CCCC2)nc2cc(NC(=O)COc3ccc(Cl)cc3)ccc21 | 6 | i | -1.6 | -1.7 | 0.71 | -5 | 6.1
Cc1cccc(-c2nc3cc([N+](=O)[O-])ccc3o2)c1 | -3 | i | 8.5 | 3.8 | 0.68 | -3 | 5.2
CN1CC(=O)N/C1=N\C(=O)Nc1ccc(O)cc1 | 15 | i | -2.3 | 4.8 | 0.67 | x | 1.4
CCCn1c(N)c(N(CCOC)C(=O)c2ccc(-c3ccc(Cl)cc3)o2)c(=O)[nH]c1=O | -4 | i | -3.2 | -2.2 | 0.63 | -5 | -3.7
C/C(=N\N=C(N)N)c1ccc(Cl)cc1Cl | 29 | i | 3.1 | -1.8 | x | -8 | x
CC(C)(CN1CCN(Cc2ccccc2)CC1)NS(=O)(=O)c1ccc(Cl)cc1 | 6 | x | -4.3 | 0.9 | 0.65 | -5 | 4.7
COCC(=O)Nc1nc2n(n1)C(c1ccccc1Cl)CC(c1ccc(OC)cc1)N2 (centres undefined) | 2 | i | -2.1 | 2.9 | 0.7 | -1 | -122
CC(=O)OC1CC(n2ccc(NC(=O)c3ccccc3)nc2=O)OC1CO (centres undefined) | -8 | x | -0.3 | 2.7 | 0.74 | -3 | 4.4
COc1ccccc1N1CCN(C(c2ccc(Cl)cc2)c2nnnn2C(C)(C)C)CC1 (centres undefined) | -2 | x | 2.6 | 0.2 | 0.74 | x | 0.3

Not all compounds are listed; count on the stated rates, not on these rows.
